SARS PLP yeast – blocks SARS-CoV papain-like protease in a yeast assay. S. cerevisiae expressing SARS-CoV PLpro, growth rescue; control for the full effect not named in the record. Potency, µM (top dose mostly 32.9 µM), for inactives: at the highest dose activity, positive = growth rescue. hit rate 0.19% among 330,000; active means well fitted rising curve with a large enough effect; inconclusive means small, poorly fitted or top-dose-only effect; inactive means no such curve, though single readings can be large or run the other way; further: 0% is about no effect; nearly all actives have a fitted effect of over 55% in size; growth read by luminescence after 48 h
NS1 inh – inhibitors of influenza NS1 protein function. AID 2326. hit rate 0.4% among 270,000. Potency, µM (highest dose often 46.1 µM), for inactives: top-dose activity, positive = more growth. S. cerevisiae slowed by influenza A NS1, growth recovery by OD600; active means well fitted rising curve with a large enough effect; inconclusive means small, poorly fitted or top-dose-only effect; inactive means no such curve, though single readings can be large or run the other way; further: nearly all actives have a fitted effect of over 50% in size
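A cell-based growth assay was used: compounds that relieve NS1-induced slow growth of budding yeast raise OD600. Assay medium was yeast nitrogen base with ammonium sulphate and -URA supplement, pH 6.0, with 2% galactose.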
StopGo reporter – FMDV 2A StopGo reporter, luciferase signal; human cells with a luciferase reporter of 2A StopGo recoding; control for the full effect not named in the record; Potency, µM (highest dose often 57.9 µM), inactives show top-dose signal change, negative = less light; hit rate 1.2% among 410,000; AID 1159524; active = well fitted falling curve with a large enough effect; inconclusive = small, poorly fitted or top-dose-only effect; inactive = no such curve, though single readings can be large or run the other way; tested in HEK293T cells; further: on the % scale 0 is the no-effect control and ±100 the full control effect; nearly all actives have a fitted effect of over 45% in size; luciferase light after 4 h
LASV entry inh – inhibitors of Lassa virus binding or cell entry | Lassa virus pseudotype entry inhibition, cell reporter; control for the full effect not named in the record | Potency, µM (doses to about 37.9 µM), without a hit: at the top dose activity change, negative = inhibition, most hits filed as inhibitors | hit rate 1.2% among 300,000 | AID 540256; active means well fitted inhibition curve with a large enough effect; inconclusive means small, poorly fitted or top-dose-only effect, or effect the other way; inactive means flat fitted curve, though single readings scatter; tested in HEK293 cells; further: on the % scale 0 is the no-effect control and ±100 the full control effect; nearly all actives have a fitted effect of over 50% in size; luciferase read-out
Cruzain noTriton – cruzain (T. cruzi) inhibition without detergent. P25779. Potency, µM, without a hit: max response, negative = inhibition, usual class: inhibitors. hit rate 2.3% among 200,000. purified cruzain, Z-FR-AMC fluorescence, no detergent;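 further: plate controls were enzyme without inhibitor for no effect and buffer without enzyme for full effect; nearly all actives have a fitted effect of over 40% in size; top concentration of the series not given in the record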
Target sequence (P25779 123-467 limits assumed): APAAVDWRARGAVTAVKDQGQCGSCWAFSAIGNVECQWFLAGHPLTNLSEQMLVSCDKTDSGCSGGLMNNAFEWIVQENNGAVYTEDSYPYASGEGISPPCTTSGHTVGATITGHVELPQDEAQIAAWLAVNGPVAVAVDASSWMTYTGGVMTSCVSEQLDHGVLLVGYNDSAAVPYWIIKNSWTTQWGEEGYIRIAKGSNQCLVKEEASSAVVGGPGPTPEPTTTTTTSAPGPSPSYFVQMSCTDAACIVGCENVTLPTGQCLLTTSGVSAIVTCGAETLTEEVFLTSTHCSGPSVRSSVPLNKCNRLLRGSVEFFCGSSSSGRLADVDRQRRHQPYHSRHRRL
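Purified cruzain at 1.5 nM, pre-incubated 15 min with compound at room temperature in 100 mM sodium acetate pH 5.5, 5 mM DTT, 0.00005% Triton X-100. Reaction started with 2 uM Z-FR-AMC; AMC fluorescence increase over 60 s gives rate.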
MARV entry inh – inhibitors of Marburg virus binding or cell entry; hit rate 1.8% among 300,000; Marburg virus pseudotyped entry inhibition, cell reporter; control for the full effect not named in the record; about a third of the inactives were read at about 46 µM; AID 540276; Potency, µM (series often up to 37.8 µM), for inactives: at the highest dose activity change, negative = inhibition, actives largely listed as inhibitors; active = well fitted inhibition curve with a large enough effect; inconclusive = small, poorly fitted or top-dose-only effect, or effect the other way; inactive = flat fitted curve, though single readings scatter; tested in HEK293 cells; about a fifth of its hits are not listed in these tables; further: on the % scale 0 is the no-effect control and ±100 the full control effect; luciferase read-out
Cruzain Triton – inhibitors of Trypanosoma cruzi cruzain with detergent. P25779. hit rate 0.43% among 200,000. AID 1478. Potency, µM, inactives show max response, negative = inhibition, usual class: inhibitors. purified cruzain, Z-FR-AMC fluorescence, 0.01% Triton;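 further: plate controls were neutral wells for no effect and buffer without enzyme for full effect; nearly all actives have a fitted effect of over 40% in size; top concentration of the series not given in the record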
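Enzyme 1.5 nM, Z-FR-AMC 2 uM, NaOAc 100 mM pH 5.5, DTT 5 mM, Triton X-100 0.01%; 15 min RT compound preincubation; kinetic ex360/em450, 60 s delta.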
RE007 growth inh – less growth of the S. pombe RE007 Vpr strain; S. pombe RE007 Vpr strain, BacTiter-Glo ATP luminescence, 24 h; control for the full effect not named in the record; Potency, µM (series often up to 92.2 µM), without a hit: at the highest dose activity change, negative = less growth; hit rate 0.21% among 360,000; active = well fitted falling curve with a large enough effect; inconclusive = small, poorly fitted or top-dose-only effect; inactive = no such curve, though single readings can be large or run the other way;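 further: on the % scale 0 is the no-effect control and ±100 the full control effect; nearly all actives have a fitted effect of over 50% in size; the assay follows cell death caused by Vpr and the record does not say whether a fall means rescue or toxicity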
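Fission yeast strain RE007, carrying one chromosomally integrated HIV-1 vpr copy, was seeded at OD 0.01 in PMG+AL medium with 23 nL pinned compound. After 24 h at 30 °C and 99% humidity, viability was read by BacTiter-Glo luminescence.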
The depositor's hits bear a star; u = inconclusive; x = not tested or not shown; & = joins results of further samples; [ ] = dose if it differs, or a comment. Unless noted, the call rests on the fitted dose curve; in most records, active means well fitted curve in the direction sought with a large enough effect; inconclusive means small, poorly fitted or top-dose-only effect, or another doubt; inactive means no such curve, though single readings can be large; an effect the other way counts as inactive or inconclusive. Potency means the concentration at half of the fitted maximal effect.

SMILES	SARS PLP yeast	NS1 inh	StopGo reporter	LASV entry inh	Cruzain noTriton	MARV entry inh	Cruzain Triton	RE007 growth inh
Cc1ccc(Nc2c3c(nc4nncn24)CCC3)c(C)c1	x	x	-19%	0%[46.1 µM]	-17%	-15%[46.1 µM]	-0.8%	x
COc1ccc(NC(=O)Cn2c(=O)oc3cc(S(=O)(=O)NC4CCCC4)ccc32)cc1OC	x	x	43%[activator]	27%[46.1 µM]	-4%	x	-1.1%	x
CCC1CCCCN1CC(C)(C)NS(=O)(=O)c1ccccc1 (stereo unspecified)	-1%	0%	-12%	1%	x	-3%[46.1 µM]	x	-24%
CC(=O)c1ccccc1NC(=O)COC(=O)/C=C/c1ccc(C)o1	-7%	x	-14%	u	x	10%	x	-5%
O=C(CSc1cccc[n+]1[O-])Nc1ccccc1C(F)(F)F	2%	x	-9%	-22%[46.1 µM]	x	10%[46.1 µM]	x	1%
Cc1ccc2[nH]c(CSc3nnc(NC(=O)c4ccccc4C)s3)cc(=O)c2c1	x	x	u	2%[46.1 µM]	-8%	x	4.4%	x
CC(=O)Nc1ccc(S(=O)(=O)N[C@@H](C)C(=O)N2CCN(c3ccccn3)CC2)cc1	x	x	1%	-16%	x	5%[46.1 µM]	x	20%
COc1ccc(C2CC(C(F)(F)F)n3nc(C(=O)Nc4ccc5c(c4)OCO5)cc3N2)cc1 (stereo unspecified)	-6%	-6%	-29%	u	-8%	-11%	-1.8%	14%
CC1(C)CC2CC(C)(CN2C(=O)c2cc(-c3ccccc3)on2)C1 (stereo unspecified)	-5%	4%	-1%	-17%[46.1 µM]	x	-24%[46.1 µM]	x	23%
O=C(Cc1ccccc1)Nc1ccccc1C(=O)Nc1ccccc1	-26%	-10%	-3%	5%	11%	32%	-5.1%	-1%
CC(=O)c1cccc(NC(=O)CSc2nnc3ccc(-c4ccc(F)cc4)nn23)c1	x	x	-12%	20%[46.1 µM]	1%	x	-0.1%	x
O=C(Nc1ccccc1)OC1CC2CC1C1CCCC21 (stereo unspecified)	-5%	-73%	21%	u	x	u	x	2%
Cc1ccccc1OCCCC(=O)Nc1nncs1	-1%	-1%	1%	x	x	x	x	1%
O=C(N/N=C/C=C/c1ccco1)c1cccnc1	-13%	12%	x	3%	-3%	22%	-9.7%	-17%
O=C(N/N=C/c1ccc2c(c1)OCO2)C(=O)N1CCCC1	-1%	x	46%[activator]	u	x	u	x	-15%
C=CCNc1cc(=O)n(Cc2ccccc2)c(=O)[nH]1	x	x	14%	-3%	x	2%	x	12%
CCOc1ccc(-c2cc(C(=O)NCCc3ccc(OC)c(OC)c3)c3c(-c4ccc(F)cc4)[nH]nc3n2)cc1	x	x	-14%	-14%[46.1 µM]	-4%	x	1.7%	x
O=[N+]([O-])c1ccc(-c2cn(-c3ccccc3)c(=S)[nH]2)cc1	5%	12%	2%	-10%	u	u	-0.3%	-8%
COc1cc2[nH]c(=S)nc(NCc3ccc(C)cc3)c2cc1OC	-2%	-1%	-3%	x	x	x	x	4%
Cc1ccc(OCCNC(=O)CCNS(=O)(=O)c2ccc(Br)cc2)cc1	x	x	8%	0%	x	8%	x	1%
Cc1cccc(N(CC(=O)N2CCc3ccccc3C2)S(C)(=O)=O)c1C	6%	2%	1%	x	x	x	x	-12%
CCc1c(C)[nH]n(-c2nc(-c3cccc([N+](=O)[O-])c3)cs2)c1=O	1%	30%	u	3%	-15%	7%	-2.1%	-27%
CNC(=O)c1ccc(CNC(=O)OCc2ccccc2)cc1	-1%	-4%	24%	16%[46.1 µM]	x	1%[46.1 µM]	x	-17%
COc1ccccc1Nc1ccncc1[N+](=O)[O-]	-1%	-3%	4%	x	x	x	x	-3%
CCOc1ccc(N2C(=O)CC(N(Cc3ccco3)C(=O)CCC(=O)O)C2=O)cc1 (stereo unspecified)	0%	-9%	-6%	-16%[46.1 µM]	x	-4%[46.1 µM]	x	-4%
Cn1c(COc2ccc(Cl)cc2)nc2ccccc2c1=O	-4%	-111%	x	17%	-2%	-2%	-21%	5%
Cc1ccc(CN2CCc3[nH]c(=S)[nH]c(=O)c3C2)cc1	-6%	-1%	u	x	x	x	x	-5%
COc1ccc(NC(=O)C2CCCN2C(=O)NC2CCCCC2)cc1OC (stereo unspecified)	10%	1%	-15%	-18%	-6%	-26%	3.9%	0%
COC(=O)C1=C(C)OC(N)=C(C#N)C1C1CCCCC1 (stereo unspecified)	3%	-9%	x	6%	-1%	15%	-5.1%	-2%
O=C(O)CCc1ccc(S(=O)(=O)Nc2ccccc2C(=O)NCCc2ccccc2)cc1	-6%	11%	46%[activator]	8%[46.1 µM]	x	u	x	-10%
CCOC(=O)C1(C)C=C(Nc2ccc(C)cc2)C(=O)N1c1ccccc1 (stereo unspecified)	x	x	-21%	22%[46.1 µM]	5%	-8%[46.1 µM]	-2.3%	x
O=C(c1cc(-c2ccc(Br)cc2)nc2ccccc12)N1CCN(c2ccccc2O)CC1	3%	x	-14%	u	x	u	x	6%
NC(=O)c1ccccc1OCc1cccc2ccccc12	-3%	-6%	32%[activator]	1%[46.1 µM]	x	-25%[46.1 µM]	x	10%
CC1Sc2ccc(S(=O)(=O)N3CCC(C(=O)NCCc4ccccc4)CC3)cc2NC1=O (stereo unspecified)	-2%	-5%	-22%	u	x	u	x	8%
O=c1[nH]c(C2CCCN(S(=O)(=O)c3ccc(F)cc3)C2)nc2c1nnn2Cc1ccc(F)cc1 (stereo unspecified)	1%	u	-17%	u	x	3%[46.1 µM]	x	-5%
CN1CCC(NC(=O)Nc2cccc(C(F)(F)F)c2)CC1	0%	0%	1%	x	x	x	x	15%
COc1ccc(N2CCN(C(=O)C(C)(C)Oc3ccc(Cl)cc3)CC2)cc1	-33%	-44%	u	x	u	x	-6.2%	12%
CC(C)CC(=O)Nc1ccccc1N1CCN(c2ccccc2)CC1	-4%	x	u	u	x	u	x	13%
CCc1ccc(NC(=O)[C@H](CSCc2ccccc2)N2Cc3ccccc3C2=O)cc1	x	x	29%	12%[46.1 µM]	-20%	5%[46.1 µM]	0.7%	x
CCOc1ccc(C2Nc3ccc4ccccc4c3-c3c2c(=O)oc2ccccc32)cc1 (stereo unspecified)	-4%	-2%	x	u	7.9µM*	-23%	-13%	10%
Nc1nc(N)nc(-c2ccccc2)n1	-4%	1%	0%	x	0%	x	3.4%	1%
COc1cccc(CCc2nnc(CCC(=O)N(C)C3CC(C)(C)NC(C)(C)C3)o2)c1	11%	4%	-22%	x	x	x	x	-9%
CCOCCCNC(=O)/C(C#N)=C/c1ccc(Cl)c([N+](=O)[O-])c1	-24%	x	u	2%	x	u	x	-1%
COc1ccc(C2=NN(CCC(=O)NCC3CCCO3)C(=O)CC2)cc1 (stereo unspecified)	2%	2%	49%[activator]	-2%[46.1 µM]	x	1%[46.1 µM]	x	-14%
Cc1nc(SCC(=O)Nc2nsc(-c3ccc(C(C)(C)C)cc3)n2)c2c3c(sc2n1)CCCC3	x	x	-8%	-1%[46.1 µM]	u	5%[46.1 µM]	-1.6%	x
O=C(NC(=S)Nc1ccc(Cl)cc1)c1cncc(Br)c1	x	x	27%	2%[46.1 µM]	x	19%[46.1 µM]	x	6%
CCC(C)NC(=O)C1CC(c2cccc(OC)c2)=NO1 (stereo unspecified)	-1%	0%	24%	10%	-11%	2%	0.7%	0%
COc1cc(OC)c(OC)cc1/C=N/NC(=O)c1cnccn1	0%	0%	1%	-3%[46.1 µM]	x	4%[46.1 µM]	x	0%
O=C(Nc1ccccc1)N1CCC(C(=O)N2CCN(Cc3ccccc3)CC2)CC1	0%	x	-11%	11%	x	10%	x	-11%
CCCCNC(=O)c1ccc(CS(=O)(=O)c2cccc(C(F)(F)F)c2)o1	8%	-6%	44%[activator]	-30%	16%	2%	1.8%	-8%
(listing goes on)
SMILES	SARS PLP yeast	NS1 inh	StopGo reporter	LASV entry inh	Cruzain noTriton	MARV entry inh	Cruzain Triton	RE007 growth inh
CCN1CCN(C2=C(NS(=O)(=O)c3ccc(C)cc3)C(=O)c3ccccc3C2=O)CC1	-4%	2%	5%	x	x	x	x	-5%
CCS(=O)(=O)N1Cc2ccccc2CC1C(=O)OCC(=O)Nc1ccc(SC(F)F)cc1 (stereo unspecified)	-4%	28%	u	u	0%	4%	-10%	6%
Cc1ccc(OCCNC(=O)c2ccco2)cc1C	-6%	-71%	36%[activator]	13%	7%	-2%	0.2%	-16%
O=C(NNC(=O)c1ccncc1)c1ccncc1	4%	1%&10%	9%	u	5%&2%	13%	1.4%&2.8%	-12%
Cc1ccc(C(=O)Nc2nc3n(n2)C(c2ccccc2)C=C(c2ccccc2)N3)cc1 (stereo unspecified)	x	x	-27%	-17%[46.1 µM]	u	u	-8.4%	x
O=C(N=NC(=O)c1ccc2c(O)n(CC3CCCO3)c(O)c2c1)c1cccnc1 (stereo unspecified)	2%	7%	10%	x	x	x	x	17%
CCOc1ccc(CNC(=O)CCn2c(=O)c3cccn3c3cccnc32)cc1	x	x	19%	10%[46.1 µM]	19%	x	-0.4%	x
Cc1ccc(NC(=O)CC(C(=O)O)c2ccccc2)cc1 (stereo unspecified)	2%	6%	-19%	6%	1%	u	1.4%	15%
Cn1nc(C(=O)NCc2ccc(Cl)cc2)c2c1-c1ccccc1S(=O)(=O)C2	-1%	3%	-20%&-29%	2%[46.1 µM]	6%	x	0.4%	-8%
COC(=O)Nc1csc2c1NC(=O)CCCC2	2%	1%	-4%	19%[46.1 µM]	x	u	x	-8%
CCC(C)NC(=O)c1ccccc1C(=O)NC(C)CC (stereo unspecified)	-4%	-5%	17%	12%	5%	8%	1.3%	3%
COC(=O)c1cccc(NS(=O)(=O)c2ccc(OC)c(C(=O)N3CCOCC3)c2)c1C	6%	8%	-4%	x	x	0%[46.1 µM]	x	8%
CN(C)/C=C/C(=O)c1ccc(N2CCN(c3ncc(C(F)(F)F)cc3Cl)CC2)cc1	-6%	22%	25µM*	u	u	u	-22%	u
COc1ccc(CNc2nccs2)cc1	1%	0%	23%	x	x	x	x	2%
CCC(C(=O)Nc1ccccc1F)N1C(=O)CN=C(c2ccccc2)c2ccccc21 (stereo unspecified)	x	x	-11%	u	-14%	u	-4.7%	x
